YopH inh – YopH tyrosine phosphatase inhibitors, primary screen, biochemical, fluorescence Ex485/Em525; YopH tyrosine phosphatase [Yersinia enterocolitica]; inhibition, %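 (about 10 µM by stock and volumes)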; 140,000 tested, 0.16% active; AID 898, 2007;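 active means inhibition of 50% or more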;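 further: controls were vehicle for no effect and minimum signal wells for full effect; inactives centre near -20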
Mtb bLac sens – beta-lactam sensitization of Mtb H37Rv, H37Rv; M. tuberculosis H37Rv growth with meropenem, percent inhibition; hits of this screen are not shown here; inhibition, % at 25 µM; 330,000 tested, 0.27% active; AID 434955, 2010;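 active means about 74% or more and at least 40 points above the plate without the antibiotic, then above 30% in a dose series; inconclusive means first-round hits that could not be retested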;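 further: growth measured after seven days incubation then overnight dye step; 0% = bacteria only wells and 100% = bacteria with antibiotic; twin plates without the antibiotic show which effects depend on it; some results filed as inactive read as strong as hits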
RecA splice inh – Mtb RecA intein splicing inhibitors, primary screen, biochemical, fluorescence, HTS | 290,000 tested, 0.75% active | Protein RecA (Mycobacterium tuberculosis (strain ATCC 25618 / H37Rv)), P9WHJ3 | inhibition, %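 (about 9 µM by stock and volumes)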 | cell-free RecA intein splicing; in the data active means inhibition above about 30%; inconclusive means no clear call, values can overlap the other calls;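 further: 0% = vehicle wells and 100% = reference inhibitor control wells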
Target sequence (P9WHJ3 whole entry, looked up, canonical isoform): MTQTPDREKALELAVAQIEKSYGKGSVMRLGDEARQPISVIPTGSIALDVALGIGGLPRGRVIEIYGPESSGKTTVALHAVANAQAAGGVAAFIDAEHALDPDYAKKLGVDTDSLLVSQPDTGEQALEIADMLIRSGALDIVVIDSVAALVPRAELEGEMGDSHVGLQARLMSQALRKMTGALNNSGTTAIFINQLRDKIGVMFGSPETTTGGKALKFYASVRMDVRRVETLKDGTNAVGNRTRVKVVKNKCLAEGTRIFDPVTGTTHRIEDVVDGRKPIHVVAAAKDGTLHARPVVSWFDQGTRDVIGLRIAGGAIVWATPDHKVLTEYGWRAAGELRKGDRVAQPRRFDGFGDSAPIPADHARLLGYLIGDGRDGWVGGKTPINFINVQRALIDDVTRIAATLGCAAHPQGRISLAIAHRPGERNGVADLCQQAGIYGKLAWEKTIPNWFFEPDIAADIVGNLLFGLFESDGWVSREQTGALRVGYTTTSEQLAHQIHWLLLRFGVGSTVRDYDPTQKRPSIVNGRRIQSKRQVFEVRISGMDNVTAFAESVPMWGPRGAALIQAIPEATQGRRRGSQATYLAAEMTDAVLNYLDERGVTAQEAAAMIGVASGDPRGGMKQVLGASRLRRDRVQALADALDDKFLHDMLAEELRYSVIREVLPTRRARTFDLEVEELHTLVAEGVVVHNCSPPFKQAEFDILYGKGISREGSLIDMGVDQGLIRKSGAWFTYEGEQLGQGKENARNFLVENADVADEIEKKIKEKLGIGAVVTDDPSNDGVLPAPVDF
Arbovirus anti – antivirals against arbovirus infection, primary screen, cell-based, full library, 10K replicate subset | arbovirus infection cell-based antiviral screen | inhibition, % at 10 µM | 200,000 tested, 0.37% active;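 active means inhibition from about 30%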;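 further: bluetongue infection of BSR cells; cell survival read as ATP light after 72 h; 0% = infected wells without compound and 100% = uninfected wells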
Mtb H37Rv – M. tuberculosis H37Rv growth inhibitors, H37Rv strain (AID 1626). M. tuberculosis H37Rv growth inhibition; higher % means a stronger effect. inhibition, % at 10 µM; hits with a dose series show IC50 in µM. 220,000 tested, 0.95% active;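 active means confirmed in a dose series; inconclusive means inhibition above 80% but not taken into the dose series; inactive means below 80% or under 30% at every dose of the series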;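 further: bacteria incubated seven days before Alamar blue readout; 0% = bacteria only wells and 100% = bacteria with antibiotic wells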
Arbovirus anti repeat – recorded beside Arbovirus anti, whose call it bears; inhibition, %; measured here: 10K subset replicate screen; many hits read low in the repeat;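 first of two repeat runs on a subset; 0% = infected and 100% = uninfected wells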
* marks the source's active call; other numbers are inactive results; ? = inconclusive; / = not tested or not shown. Only part of the results is shown; the hit share may differ from the screen's.

The first 5 compounds, to show the layout:
SMILES | YopH inh | Mtb bLac sens | RecA splice inh | Arbovirus anti | Mtb H37Rv | others
FC(F)(F)C1=NC(C(F)(F)F)=NP(N2CCOCC2)(N2CCOCC2)=N1 | -13.9 | -4.2 | -6.6 | 9.4 | -4.6%
CC(C)(CO)NCC(O)Cn1cc(C=O)c2ccccc21 (stereo not given) | / | -1.0 | 1.3 | 16.4 | 3.4%
C=C1C(C(=O)Nc2ccc(OC)cc2)C1C(=O)Nc1ccc(OC)cc1 (stereo not given) | / | 0.2 | -1.3 | / | /
CC/C(=N/Nc1ccccc1C)c1cnnc(SC)n1 | -21.1 | 10.1 | -1.6 | -8.7 | 2.2%
COc1cc(OC)c(C(=O)O/N=C(\N)c2ccccn2)cc1OC | / | 4.9 | 0.1 | / | /

This part in full, repeating the preview:
SMILES | YopH inh | Mtb bLac sens | RecA splice inh | Arbovirus anti | Mtb H37Rv | others
FC(F)(F)C1=NC(C(F)(F)F)=NP(N2CCOCC2)(N2CCOCC2)=N1 | -13.9 | -4.2 | -6.6 | 9.4 | -4.6%
CC(C)(CO)NCC(O)Cn1cc(C=O)c2ccccc21 (stereo not given) | / | -1.0 | 1.3 | 16.4 | 3.4%
C=C1C(C(=O)Nc2ccc(OC)cc2)C1C(=O)Nc1ccc(OC)cc1 (stereo not given) | / | 0.2 | -1.3 | / | /
CC/C(=N/Nc1ccccc1C)c1cnnc(SC)n1 | -21.1 | 10.1 | -1.6 | -8.7 | 2.2%
COc1cc(OC)c(C(=O)O/N=C(\N)c2ccccn2)cc1OC | / | 4.9 | 0.1 | / | /
Cc1ccc(Sc2cnccc2C#N)cc1 | / | 2.3 | -1.8 | / | /
CCC(CO)NCc1cc(OC)c(OCC(=O)NCCc2ccccc2)cc1Br (stereo not given) | -21.2 | -5.4 | -2.2 | 0.3 | -2.4%
O=C(c1ccc(S(=O)(=O)N2CCCC2)cc1)N(c1ccc(F)cc1)C1C=CS(=O)(=O)C1 (stereo not given) | / | 7.3 | 1.3 | / | /
O=C(Oc1cccc(N2C(=O)CCC2=O)c1)c1ccccc1 | -0.6 | 7.7 | 2.1 | -2.5 | -10.3%
O=C(NCc1cccnc1)c1ccccc1NS(=O)(=O)c1ccc(F)cc1 | / | 1.8 | 5.4 | / | /
Cn1c(=O)c2[nH]c(CNc3ccc(C(=O)O)cc3)nc2n(C)c1=O | / | -6.8 | -0.5 | / | /
O=C(c1ccc(CN2CCOCC2)cc1)N1CCN(c2ccccc2F)CC1 | -9.8 | -2.1 | 1.0 | -0.1 | -0.2%
CC(Oc1cc2oc(=O)c3c(c2cc1Cl)CCC3)C(=O)NCCCN1CCCC1=O (stereo not given) | / | -1.5 | 6.8 | / | /
CC1=NNC(=O)C1CCC(=O)N/N=C/c1ccc(Cl)cc1 (stereo not given) | / | -1.6 | -4.3 | 9.7 | -1.1%
COc1cc(OC)cc(C(=O)NCC(=O)OCC(=O)N2CC(C)CC(C)C2)c1 (stereo not given) | / | 3.3 | -6.4 | 16.0 | -0.2%
O=C(c1ccco1)N1CCN=C1SCc1cccc(Cl)c1 | -34.6 | 11.1 | -3.9 | 6.0 | -6.0% | Arbovirus anti repeat=0.1
O=C(CN1CCN(Cc2cccc(Cl)c2)C1=O)N1CCC2(CC1)OCCO2 | 14.2 | 1.5 | 0.7 | 2.6 | -10.4%
c1nnn(C23CC4CC(CC(C4)C2)C3)n1 | -71.3 | 7.6 | 2.9 | 9.3 | -7.4%
CC(C)(C)C(=O)NC(=S)N1CCCC1 | -19.2 | -2.5 | -0.2 | 0.1 | -3.4%
COc1ccc(NC(=O)COc2cccc3c2CCN(Cc2cccnc2)C3=O)cc1 | / | -9.5 | -0.4 | / | /
Cc1ccc2nc(NNC(=O)c3ccc(S(=O)(=O)N4CCc5ccccc5C4)cc3)sc2c1 | -18.2 | -6.4 | -2.1 | -31.6 | 2.0%
CCC(=O)N1CCc2cc(S(=O)(=O)CCC(=O)Nc3ccc(OC)cc3)ccc21 | / | 4.4 | -1.6 | / | /
O=C(N/N=C\C=C\c1ccc2c(c1)OCO2)C1COc2ccccc2O1 (stereo not given) | -10.6 | 6.0 | -1.2 | -15.6 | 4.6%
CN1CCCC1C(O)(c1ccccc1)c1ccccc1 (stereo not given) | -27.3 | -4.8 | 1.3 | / | 3.5%
Cc1noc(N)c1C1(O)C(=O)N(C(C)C)c2ccccc21 (stereo not given) | / | -4.7 | 5.0 | -4.0 | -3.8%
COc1cc(OC)cc(C(=O)Nn2cc(C(=O)Nc3ccc(F)cc3F)c3ccccc3c2=O)c1 | -4.2 | 8.4 | 2.4 | -19.8 | 10.7%
O=C(COC(=O)c1ccccc1Br)NCCN1C(=O)CSC1=O | / | 1.3 | 1.3 | -1.7 | 3.0%
CC(C)(C)c1ccc(CSc2nnc(-c3ccccc3NC(=O)c3ccccc3)o2)cc1 | -20.9 | 11.4 | -0.2 | 7.7 | 8.6%
CCOc1ccc(C(C)=O)cc1CN1C(=O)NC2(CCCCCCC2)C1=O | / | 1.7 | 1.0 | 10.1 | 3.5%
COC(=O)c1ccccc1NC(=O)C1CCN(S(C)(=O)=O)CC1 | -27.2 | -0.6 | 2.8 | 0.4 | 10.7%
Cc1cccc(NC(=S)NC2CC3CCCC(C2)N3Cc2cccs2)c1C (stereo not given) | -11.7 | 3.2 | 2.5 | 6.5 | 0.4%
CCOC(=O)c1c(C)nn(Cc2ccccc2)c1N | -13.0 | -3.5 | -0.2 | -0.3 | 5.8%
CCOc1ccc(N2CCCn3c2nc2c3c(=O)n(CCc3ccccc3)c(=O)n2C)cc1 | / | / | -2.5 | -3.9 | 0.6%
CC(=O)NC(=S)Nc1ccc(S(=O)(=O)Nc2ncccn2)cc1 | / | 0.6 | -0.4 | / | -7.5%
O=S(=O)(c1ccccc1)N(CC1CO1)c1cc(Cl)ccc1Cl (stereo not given) | / | 2.0 | 24.8 | / | /
O=C(c1cc(-c2cccs2)on1)N1CCc2ccccc2C1 | -32.0 | -7.1 | 1.4 | -4.0 | 1.4%
CN(C)c1cccc2c1c(NC(=O)Nc1ccccc1)nn2C | / | 4.1 | 7.6 | / | -8.2%
COC(=O)c1ccc(N2CCN(C)CC2)c([N+](=O)[O-])c1 | / | 2.5 | -3.0 | 0.8 | -6.0%
c1coc(-c2nnc(SCc3cn4ccccc4n3)o2)c1 | -37.1 | -9.8 | 1.6 | 5.8 | 2.4%
CSc1n[nH]c(NCc2ccc(Cl)cc2)n1 | -23.0 | -10.7 | 1.2 | -0.8 | -9.1%
CCCc1nc2ccc(NC(C)=O)cc2c(=O)n1Cc1ccccc1Cl | / | -10.9 | -1.5 | / | /
COc1ccccc1CCNC(=O)CSc1ccc(-c2ccco2)nn1 | / | -1.0 | 4.0 | 8.1 | -6.6%
Cc1cc(C(=O)N/N=C/c2ccc(Cl)c([N+](=O)[O-])c2)c(C)n1-c1ccc(F)cc1 | -23.1 | 91.7 | 4.7 | -7.0 | ?
Cc1cc2c(cc1S(=O)(=O)NCc1ccc(N(C)C)cc1)OCC(=O)N2 | / | 1.6 | -0.2 | / | /
COc1cc(C=O)ccc1OCCOCCOc1cc(C)ccc1Cl | -20.5 | 1.1 | 0.7 | 0.8 | 1.1%
Cc1ccccc1-n1c(O)c(/C=C/C=Nc2ccccc2)c(=O)[nH]c1=O | -3.9 | 1.3 | 0.6 | -3.1 | 5.8%
O=C(Nn1cnnc1)c1ccc(Cl)cc1[N+](=O)[O-] | / | -9.5 | -2.6 | / | /
O=[N+]([O-])c1ccc2c(c1)c(-c1ccccc1)nc1nncn12 | / | / | -3.0 | 1.9 | -6.7%

Pulled one by one from the list above (2):
SMILES | YopH inh | Mtb bLac sens | RecA splice inh | Arbovirus anti | Mtb H37Rv | others
COc1cc(OC)c(C(=O)O/N=C(\N)c2ccccn2)cc1OC | / | 4.9 | 0.1 | / | /
CC(C)(C)C(=O)NC(=S)N1CCCC1 | -19.2 | -2.5 | -0.2 | 0.1 | -3.4%

Following part.
SMILES | YopH inh | Mtb bLac sens | RecA splice inh | Arbovirus anti | Mtb H37Rv | others
O=c1[nH]c(=S)n(-c2ccc(F)cc2)c(O)c1/C=N/N1CCOCC1 | / | -7.2 | -4.1 | / | 5.0%
O=C(O)c1cc(-c2ccc(Cl)cc2)n(-c2cccc(Cl)c2)n1 | / | -10.5 | 0.8 | / | /
COc1ccc(C2N=C(c3ccccc3)C(C)(C)N2O)cc1 (stereo not given) | -20.2 | 4.5 | -8.1 | 10.1 | -0.7%
COC(=O)c1ccc(CSc2nnc(NCc3ccccc3)s2)o1 | -4.7 | -5.3 | 10.3 | -4.3 | 16.8%
Cc1ccc(SCc2c(-c3ccccc3)nn(C)c2Cl)cc1 | -40.4 | / | 15.6 | -2.4 | 2.0%
Cc1c(OCC(=O)N2CCC(C(N)=O)CC2)ccc2c3c(c(=O)oc12)CCCC3 | / | 0.1 | 1.6 | / | /
Cc1ccc(-c2cc3ccccc3nc2N)cc1 | / | 14.1 | -1.0 | / | /
C/C(=N\NC(=O)c1c(Cl)cnn1C)c1ccc(NC(=O)c2ccc(Br)o2)cc1 | / | 0.5 | 0.1 | / | /
COCCN(C(=O)CSc1nnc(C)n1-c1ccc(C)cc1)c1c(N)n(Cc2ccccc2)c(=O)[nH]c1=O | / | 1.9 | -0.2 | / | /
CN(Cc1nc(CC2CC2)no1)CC12CC3CC(CC(C3)C1)C2 | / | -5.0 | 5.3 | -2.7 | -6.9%
CC(CCc1ccco1)NC(=O)c1cccc2c1C(=O)N(C1CCCCC1)C2 (stereo not given) | / | 42.9 | / | -9.0 | 0.2%
Cc1ccc(NC(=O)CN2CCOCC2)cc1 | / | 2.1 | -0.4 | / | /
Cc1cccc(N2CCN(S(=O)(=O)c3ccc4c(c3)NC(=O)C(C)S4)CC2)c1C (stereo not given) | / | 0.8 | 6.1 | / | /
O=C1NC(=Nc2cccc(O)c2)S/C1=C\c1cccnc1 | / | -1.3 | 1.0 | / | 1.1%
CCn1cc(CN2CCC(C(=O)Nc3cccc(-c4cccc(Cl)c4)c3)CC2)c(C)n1 | / | 42.8 | 0.7 | / | /
Cc1ccc(NC(=O)COC(=O)[C@@H]2CCCN2C(=O)c2cccs2)cc1S(=O)(=O)N(C)C | / | 4.5 | -1.0 | / | -2.1%
CCCc1nnc(SCCSc2nnc(CCC)n2N)n1N | -19.5 | -2.1 | -0.1 | 1.8 | -1.9%
COc1cccc(/C=N/n2c(C3CCCCC3)n[nH]c2=S)c1 | / | 0.7 | -0.7 | / | /
CCOC(=O)C1=NNC2(CC(=O)N(c3cccc(C)c3)C2=O)C1 (stereo not given) | / | -2.2 | -1.1 | / | -2.2%
O=C(c1ccc(S(=O)(=O)NCC2CCCO2)cc1)N1CCc2ccccc21 (stereo not given) | -50.7 | -7.9 | 0.4 | 6.0 | 1.0%
Cc1ccc(C)c(N2CCN(S(=O)(=O)c3cn(C)cn3)CC2)c1 | / | -1.6 | -1.4 | / | /
CCCc1cc(=O)[nH]c(SCC(=O)N2CCN(S(=O)(=O)c3ccc4ccccc4c3)CC2)n1 | -29.3 | -0.1 | 0.3 | -3.7 | -9.6%
Cc1cc(C)cc(Oc2ccccc2/C=C\C(=O)O)c1 | -39.3 | ? | 0.7 | 10.0 | 1.2%
CCOc1ccc(S(=O)(=O)NCc2csc(C)n2)cc1 | -2.2 | 17.0 | 0.4 | 12.3 | 1.9%
CCOC(=O)C1CCN(C(=O)c2cccnc2Oc2ccc(Cl)cc2)CC1 | / | -2.8 | -0.6 | / | 4.5%
CCN(CC)S(=O)(=O)c1cccc(C(=O)OCC(=O)NCc2ccccc2OC)c1 | / | -7.2 | 2.8 | / | /
CCCC(C)NC(=O)c1cccc(Oc2ccccc2)c1 (stereo not given) | / | 1.4 | 6.6 | -7.0 | -0.7%
COCc1cc(C)nc(N2CCOCC2)c1C#N | -49.8 | 1.7 | 0.8 | 1.5 | 3.5% | Arbovirus anti repeat=2.4
C=CCNC(=O)C1CC2Cn3c(nc4cc(Cl)c(Cl)cc43)C2N1C (stereo not given) | / | -16.3 | -0.3 | / | /
O=C1C2C3C=CC(CC3)C2C(=O)N1c1cccc(Br)c1 (stereo not given) | / | -2.0 | 0.6 | / | /
Clc1ccc(/C=N/Nc2nnc(-c3ncc[nH]3)c3ccccc23)cc1 | -28.9 | 49.5 | -1.0 | -1.5 | 7.9%
Cc1ccnc(SCCn2c(N3CC(C)OC(C)C3)nc3c2c(=O)n(C)c(=O)n3C)n1 (stereo not given) | / | -3.5 | 2.2 | 4.8 | -4.0%
O=C1CN=CN=CN1c1ccc(Cl)cc1Cl | -5.4 | 42.2 | -2.1 | -2.6 | /

Bioassay records from PubChem BioAssay.
